# High-throughput results as filed in PubChem BioAssay.
# Sfp inh: qHTS Assay for Inhibitors of Bacillus subtilis Sfp phosphopantetheinyl transferase (PPTase); actives 3.5% (n = 310,000); AID 1490, 2009; Biochemical Sfp PPTase activity, qHTS; Potency, µM, for the others: max response, negative = inhibition, actives largely listed as inhibitors; 4'-phosphopantetheinyl transferase ffp (Bacillus subtilis), Q9F4F7; active means well fitted inhibition curve with a large enough effect; inconclusive means small, poorly fitted or top-dose-only effect, or another doubt; inactive means no such curve, though single readings can be large or run the other way;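 further: the enzyme is Sfp with the accession as filed and its product quenches rhodamine fluorescence; potency means the concentration at half of the fitted maximal effect; 0% = enzyme reaction without inhibitor and -100% = no enzyme wells; top concentration of the series not given in the record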
#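 Fluorescence-quenching assay with 15 nM Sfp, 5 uM rhodamine-CoA and 12.5 uM BHQ-2-labelled ybbR peptide in pH 7.6 Hepes/MgCl2 buffer. Enzyme was pre-incubated with compound for 15 min at room temperature. Rate was taken from the 30-min fluorescence change (525/598 nm).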
# PINK1 modulator: A Quantitative High throughput Screen to Identify Chemical Modulators of PINK1 Expression; AID 624263, 2012; Potency, µM (titrated, usually from 76.6 µM), without a hit: at the highest dose activation (PINK1 increase), most hits filed as activators; actives 0.2% (n = 410,000); PINK1 immunofluorescence, high-content cytometry, 24 h; active = well fitted activation curve with a large enough effect; inconclusive = small, poorly fitted or top-dose-only effect; inactive = flat fitted curve, though single readings scatter; cell line not stated here;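 further: potency means the concentration at half of the fitted maximal effect; % of control where 0% means no effect; nearly all actives have a fitted effect of over 65% in size; a mitochondrial uncoupler was the plate control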
#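 PINK1 protein level read as immunofluorescence by microplate cytometer in a fixed, stained stable cell line after 24 h exposure to five compound concentrations, with CCCP as control.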
# D2 potentiator: Beta-Arrestin HTS for Positive Allosteric Modulators of the Human D2 Dopamine Receptor: Potentiators; D(2) dopamine receptor (Homo sapiens), P14416; DiscoveRx D2 beta-arrestin cells, luminescence, 90 min; 100% = 57 uM dopamine signal; potentiation, % (concentration not given with the values); actives 0.23% (n = 360,000); AID 624464, 2012; active = potentiation of 50% or more; inconclusive = 30% to 50%; inactive = 30% or less;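 further: compound concentration not given in the record; tested on top of an EC20 dose of dopamine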
# Target sequence (P14416 whole entry, looked up): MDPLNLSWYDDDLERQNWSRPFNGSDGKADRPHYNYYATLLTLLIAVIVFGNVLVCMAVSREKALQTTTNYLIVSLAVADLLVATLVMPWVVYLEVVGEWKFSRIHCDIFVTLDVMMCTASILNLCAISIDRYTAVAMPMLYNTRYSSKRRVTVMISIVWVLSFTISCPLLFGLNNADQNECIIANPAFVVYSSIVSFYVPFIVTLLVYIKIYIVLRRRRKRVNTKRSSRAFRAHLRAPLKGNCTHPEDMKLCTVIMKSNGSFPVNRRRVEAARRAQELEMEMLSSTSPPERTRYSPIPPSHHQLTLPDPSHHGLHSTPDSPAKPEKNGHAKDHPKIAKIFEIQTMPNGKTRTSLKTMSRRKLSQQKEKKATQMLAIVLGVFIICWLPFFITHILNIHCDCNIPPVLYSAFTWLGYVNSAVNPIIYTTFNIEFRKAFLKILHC
#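 PathHunter beta-arrestin assay in DiscoveRx D2 cells. Compounds were added with an EC20 of dopamine (50 nM final) for 90 min at 37 deg C. Luminescence was read 1 h after detection reagent, with 57 uM dopamine as the EC100 control.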
# D2 agonist: Beta-Arrestin HTS for Positive Allosteric Modulators of the Human D2 Dopamine Receptor: Agonists. DiscoveRx PathHunter D2 beta-arrestin, luminescence, 90 min; 100% = 57 uM dopamine signal. activation, % (test concentration not listed). actives 0.084% (n = 360,000); in the data active = activation above about 40%; inconclusive = about 15% to 40%; inactive = below about 15%; further: compound concentration not given in the record; the text of the record calls up to 30% inactive
#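 Agonist mode: compounds alone added to overnight-plated D2 PathHunter cells for 90 min at 37 C, with 57 uM final dopamine (EC100) defining full response. Beta-arrestin recruitment detected by chemiluminescent reagent, read after 1 h at ambient temperature.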
# CtBP-E1A inh: qHTS Assay for Inhibitors of the CtBP/E1A Interaction; CtBP / adenovirus E1A interaction (AlphaScreen); AlphaScreen GST-E1A/His-CtBP binding, 1536-well; stronger effect = lower value; control for the full effect not named in the record; activity change, % (no concentration beside the values); actives 0.49% (n = 340,000); AID 651724, 2012; in the data active means activity change below about -65%; inconclusive means about -30% to -65%; inactive means above about -30%; further: on the % scale 0 is the no-effect control and ±100 the full control effect; compound concentration not given in the record
#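 GST-E1A and His-tagged CtBP (125 nM each as 5X stock) were preincubated with pin-transferred compound for 2 h at 37 °C in the dark, then glutathione donor and nickel acceptor beads were added for 1 h before AlphaScreen reading.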
# TRPV1 PAM: HTS Assay for Compounds that Act as Potentiators of the Vanilloid Receptor 1 | Transient receptor potential cation channel subfamily V member 1 (Homo sapiens), Q8NER1 | TRPV1-expressing cells, Fluo-8 calcium influx, capsaicin EC20 potentiation; host cell line not named in the record; control for the full effect not named in the record | potentiation, % at 8.33 µM | actives 0.02% (n = 320,000); active means potentiation above 80%; inconclusive means 30% to 80%; inactive means below 30%; further: 0% is about no effect
#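 Cells expressing TRPV1 were dye-loaded with Fluo-8 and read kinetically: 10 s baseline, 3 min after compound (agonist portion), then 2 min after EC20 capsaicin (allosteric enhancer portion). Calcium-bound dye fluorescence at 480/520 nm.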
# Six1-Eya2 blk: qHTS Assay for Inhibitors of the Six1/Eya2 Interaction; AlphaScreen GST-Six1/His-Eya2 binding, biochemical; stronger effect = lower value; control for the full effect not named in the record; Homeobox protein SIX1 (Homo sapiens) + Protein phosphatase EYA2 (Homo sapiens), …; actives 0.56% (n = 360,000); AID 651725, 2012; activity change, % (concentration not given with the values); in the data active = activity change below about -65%; inconclusive = about -30% to -65%; inactive = above about -30%; further: on the % scale 0 is the no-effect control and ±100 the full control effect
#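 Homogeneous AlphaScreen proximity assay pairing GST-Six1 with His-tagged Eya2 (added as 5X mix: 250 nM and 500 nM) in 50 mM Tris pH 8.0, 300 mM NaCl, 1 mM TCEP. Glutathione donor and nickel acceptor beads; 1 h, 37 °C, dark.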
# An asterisk follows results filed as active; ? = inconclusive; . = no result given; [ ] = dose if it differs, or a comment.
SMILES,Sfp inh,PINK1 modulator,D2 potentiator,D2 agonist,CtBP-E1A inh,TRPV1 PAM,Six1-Eya2 blk
COCC1CCN(Cc2cn(C)nc2-c2cccc(Cl)c2)C1 (stereo unspecified),10%,-0.7%,-16,1.8,16,1,8
O=c1cc(CNc2cc(C(F)(F)F)cc(C(F)(F)F)c2)nc2sccn12,11%,4.0%,1,-4.9,0,13,6
CCOC(=O)C1=C(C)NC(C)=C(C(=O)OCC)C1c1cccc([N+](=O)[O-])c1,.,?,-15,-7.8,-19,.,-3
CSC1=NCCN1C(=O)c1ccc(S(=O)(=O)N2CCCC2)cc1,-8%,3.0%,-4,-1.5,0,11,8
CCOc1ccc(NC(=O)CN(C)C(=O)c2c(-c3ccccc3Cl)noc2C)cc1OCC,.,11%,-1,0.6,-4,9,-1
c1ccc(Cn2nnnc2C(c2cccnc2)N2CCN(C3CCCCC3)CC2)cc1 (stereo unspecified),-7%,.,-18,-2.6,6,8,8
CCCCN(C(=O)CSc1nncn1-c1ccccc1OC)c1c(N)n(Cc2ccccc2)c(=O)[nH]c1=O,13%,-0.7%,-7,-2.3,-2,-9,3
Oc1cccc(C(=S)N2CCN(Cc3ccccc3)CC2)c1,?,-0.7%,4,-3.7,-6,?,-2
COCCNC(=O)c1ccc(N2CC3CC(C2)c2cccc(=O)n2C3)c(NC(=O)c2ccc(F)cc2)c1 (stereo unspecified),6%,0.2%,-6,-0.2,-15,12,-5
O=C(Nc1ccccc1)N(Cc1ccccc1)Cc1ccccc1,12%,9.5%[38.3 µM],-10,-3.6,14,-10,4
OC(c1ccc(Cl)c(F)c1)c1ncc(-c2ccc(Cl)cc2)[nH]1 (stereo unspecified),.,?,-6,3.4,-28,.,-16
CC1=C(SCCC#N)S/C(=C2\SC(C)=C(SCCC#N)S2)S1,7.9µM*,10%[38.3 µM],-14,-3.3,-5,7,-78*
CCc1nc(N[C@H](C(=O)O)C(C)C)c2oc3ccccc3c2n1,12%,-2.1%,8,3.3,0,11,18
CC(O)(c1ccccc1)c1nc(-c2ccccc2)cs1 (stereo unspecified),.,6.1%,-5,-1.4,7,.,1
COc1c2ccoc2c(OC(C)=O)c2oc(C)cc(=O)c12,13%,0.1%,-6,-0.9,.,-4,-2
CC(=O)N1CCc2cc(S(=O)(=O)CCC(=O)NCc3ccc4c(c3)OCO4)ccc21,4%,-0.4%,1,0.8,-2,4,0
Cc1cc(=O)[nH]c(SCC(=O)c2ccc(C(C)C)cc2)n1,-1%,7.5%,-4,-4.2,-1,-9,-1
COC(=O)c1cc(Nc2cc(C)c3c(O)cccc3n2)cc(C(=O)OC)c1,2%,6.0%,-12,1.1,-6,-1,1
NC(=O)c1cnn(-c2ccc3ccccc3c2)c1N,13%,-0.2%,-3,-1.9,0,0,5
CC1=C(C(=O)OCc2ccccc2)C(c2ccc(-c3ccccc3)cc2)NC(=O)N1CCCCCC(=O)O (stereo unspecified),-30%,-0.8%,-11,-2.4,2,10,-5
CCNC(=O)COC(=O)CCC(=O)c1ccc(F)cc1,19%,1.5%,-1,-3.5,0,2,13
CC(C)(C)S(=O)(=O)/C(C#N)=C/Nc1ccccn1,3%,0.4%,-1,3.7,11,-8,-3
CN(Cc1ccccc1)S(=O)(=O)c1ccc2c(c1)NC(=O)CC(=O)N2,-5%,0.5%,18,0.9,-2,-2,6
Cc1nn(Cc2ccc(F)cc2)c(C)c1NC(=O)c1cc(-c2ccc3c(c2)OCO3)on1,3%,0.0%[38.3 µM],12,0.2,-2,-2,1
Cc1ccc(S(=O)(=O)NC2=NCN(C3CCN(Cc4ccccc4)CC3)CN2)cc1,0%,-1.0%,-6,-2.3,10,3,8

# (next part)
SMILES,Sfp inh,PINK1 modulator,D2 potentiator,D2 agonist,CtBP-E1A inh,TRPV1 PAM,Six1-Eya2 blk
CC1CCCN(CC(=O)NC(=O)NC2CCCCC2)C1 (stereo unspecified),.,-2.0%,-8,-3.2,.,-25,3
COCCCNC(=O)C1CCC(CNS(=O)(=O)c2ccc3c(c2)CC(C)N3C(=O)C2CC2)CC1 (stereo unspecified),11%,-0.3%,-12,0.9,8,-4,4
Cc1ccc(N(CN2CCCC2=O)C(=O)c2ccc(OC(C)C)cc2)cc1,11%,1.1%,2,0.3,3,-6,2
N#C/C(=C\c1c(Cl)cccc1Cl)c1nn(-c2ccccc2)c(-n2cccc2)c1C#N,11%,2.3%,1,-4.0,-11,2,-9
Cc1ccc(C(=O)Nc2ccc(N3CCOCC3)nc2)cc1,16%,-2.5%,0,-1.2,3,-13,2
COC(=O)CNC(=O)CN1C(=O)N(c2ccc(Cl)cc2)C(N(O)C(=O)Nc2ccc(Cl)cc2)C1(C)C (stereo unspecified),12%,-1.2%,0,3.9,4,5,-2
COc1cccc(C(=O)NNC(=O)c2ccccc2-n2cccc2)c1,15%,2.0%,-8,-3.7,0,0,2
CCOc1ccccc1N1CCN(Cc2cn[nH]c2-c2ccc(F)cc2)CC1,-1%,5.8%,-4,-1.7,-5,.,-10
COc1ccccc1N1CCN(/N=C\c2ccc(C)o2)CC1,79µM*,-0.7%,-15,-3.3,-5,-12,-16
O=C(Cn1c(=O)oc2ccccc21)Nc1ccccc1C(F)(F)F,14%,1.3%,0,1.1,6,-4,11
CN(CC(=O)Nc1cccc(F)c1)C(=O)C1=COCCO1,.,-1.1%,-8,2.6,7,-12,1
COc1ccccc1NC(=O)CN(C)S(=O)(=O)c1ccc2c(c1)CCC(=O)N2,7%,2.8%,-4,-8.8,-1,-18,-8
CCCCOCCCNC(=O)CC(C)c1ccccc1 (stereo unspecified),0%,0.9%,-11,-3.0,3,2,3
C/C(CCc1ccccc1)=N/NC(=O)C(=O)NCc1ccccc1,-2%,2.5%,-3,-4.7,.,6,3
O=C(NCc1cccc(Cl)c1)C1CCCO1 (stereo unspecified),20%,1.0%,1,-2.7,4,5,1
COC(CNC(=O)c1coc2nc3ccccc3nc12)OC,3%,7.6%,-13,-6.9,-13,-13,-12
Cn1cc(SCC(=O)Nc2ccc3c(c2)OCO3)c2ccccc21,?,4.6%,-22,-0.7,-20,-18,-16
O=C(NCCCn1cccn1)C1CCC(=O)N(Cc2ccccc2F)C1 (stereo unspecified),11%,-0.9%,1,-1.0,5,23,1
O=C(c1cc2ccccc2o1)N1CCN(CCOc2ccccc2)CC1,.,0.2%,-27,?,3,-18,-8
Fc1ccc(CSc2nnc(CN3CCOCC3)n2-c2ccccc2)c(Cl)c1,0%,0.9%,-11,-4.3,-1,-3,-3
COc1ccc(OC)c(NC(=O)C2CCCN(S(C)(=O)=O)C2)c1 (stereo unspecified),16%,0.2%,-4,-5.9,3,-9,3
CCCC1=Nc2cc(C(=O)NCCCOC(C)C)ccc2Sc2ccccc21,8%,-2.6%,-4,-0.2,-4,-12,-10
Cc1ccc(C(=O)NNc2ncnc3ccccc23)cc1,71µM*,-2.6%,-4,-2.5,-5,11,11
COc1cccc(CNC(=O)[C@@H]2CCCN2C(=O)[C@@H]2CCCN2C(=O)c2ccc(Cl)cc2)c1,.,-1.0%,.,.,8,.,7
C#Cc1ccc(NC(=O)C2(C)CCN2C(=O)C/C=C/c2ccccc2)cc1 (stereo unspecified),.,-0.4%,-8,-4.0,-7,.,-3

# Going on with the list.
SMILES,Sfp inh,PINK1 modulator,D2 potentiator,D2 agonist,CtBP-E1A inh,TRPV1 PAM,Six1-Eya2 blk
Cc1ccc(C)c(NC(=S)NNC(=O)c2ccc(Br)o2)c1,10%,-1.9%,-14,-5.2,-1,.,0
FC(F)Sc1ccc(NC(=S)N2CCN(c3ccccn3)CC2)cc1,3%,8.0%,-6,2.2,-9,-16,-3
Cc1cccc(C)c1N1C(=O)CC(N(O)c2ccccc2)C1=O (stereo unspecified),-17%,-1.3%,51*,6.7,-1,-25,4
Cc1ccc(NC(=S)N(CCCN2CCN(C)CC2)Cc2cccs2)cc1,-29%,-0.9%,-25,-5.2,-15,3,-5
CC[C@]1(C(=O)OC)[C@H]2C(=O)N(Cc3ccccc3)C(=O)[C@H]2[C@H]2CN=C(SCc3ccccc3)N21,.,-1.2%,-9,-0.9,0,.,-1
c1ccc(C[n+]2c(-c3ccccc3)csc2Nc2ccccc2)cc1,4%,?,3,-0.3,0,14,-8
Cn1cc(CN2CCC(C(O)c3cccs3)CC2)c(-c2ccccc2F)n1 (stereo unspecified),20%,0.2%,-2,-1.7,7,-2,-4
CC(=O)O/N=C(/C)c1ncc(C(F)(F)F)cc1N1CCOCC1,18%,0.1%,-4,-4.0,-3,-3,4
COC(=O)c1ccc(C)c(NC(=O)C2CC(=O)N(C3CCCC(C)C3C)C2)c1 (stereo unspecified),.,1.7%,-3,-1.2,-6,1,-4
CCC(O)C1CCN(C(=O)c2ccc(OC3CCN(Cc4ccccn4)CC3)cc2)CC1 (stereo unspecified),2%,0.2%,3,0.4,-5,3,0
CN(Cc1ccccc1F)C(=O)C(Cc1ccccc1)NC(=O)c1ccccc1 (stereo unspecified),.,-0.9%,0,-2.1,2,-14,1

# Whole records from above. Order of screens: Sfp inh | PINK1 modulator | D2 potentiator | D2 agonist | CtBP-E1A inh | TRPV1 PAM | Six1-Eya2 blk
# OC(c1ccc(Cl)c(F)c1)c1ncc(-c2ccc(Cl)cc2)[nH]1 (stereo unspecified) is entered as . | ? | -6 | 3.4 | -28 | . | -16
# c1ccc(C[n+]2c(-c3ccccc3)csc2Nc2ccccc2)cc1 is entered as 4% | ? | 3 | -0.3 | 0 | 14 | -8
# O=C(NCCCn1cccn1)C1CCC(=O)N(Cc2ccccc2F)C1 (stereo unspecified) is entered as 11% | -0.9% | 1 | -1.0 | 5 | 23 | 1
# CSC1=NCCN1C(=O)c1ccc(S(=O)(=O)N2CCCC2)cc1 is entered as -8% | 3.0% | -4 | -1.5 | 0 | 11 | 8
# CCOC(=O)C1=C(C)NC(C)=C(C(=O)OCC)C1c1cccc([N+](=O)[O-])c1 is entered as . | ? | -15 | -7.8 | -19 | . | -3
